# Screening data: PubChem BioAssay, Fisher Drug Discovery Resource Center
# NPYLR7 agonist – agonists of mosquito NPYLR7 receptor, primary screen, cell-based, Aedes aegypti, calcium fluorescence, mosquito biting behavior. AID 1259423, 2018. activation, % at 10 µM. hit rate 0.15% among 270,000. HEK293T NPYLR7/Galpha15, GCaMP6s calcium fluorescence; in the data active means activation above about 40%;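 further: 0% = vehicle and 100% = reference agonist at the receptor; some compounds past the cut are filed as inactive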
# NPYLR7 agonist max-min – also measured in NPYLR7 agonist; calls as there; activation, %; measured here: Max-Min RFU normalised activation; some inactives read as strong as hits;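 span of the calcium signal over five minutes; 0% = vehicle and 100% = native peptide agonist; compound fluorescence can raise it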
# Active calls of the source: *; i = inactive; & = joins results of further samples. The list is partial; rates above refer to the full screens.
# Sample of the layout:
mol | NPYLR7 agonist | NPYLR7 agonist max-min
COc1ccc(-c2nc3cc(C)ccn3c2NC(=O)c2ccc(F)cc2)cc1 | -2.6 | 7.1
CC(=O)c1ccc(NC(=S)NC(NC(=O)N(C)C)C(Cl)(Cl)Cl)cc1 (stereo not drawn) | -11.0 | -18.1
Cc1ccc(S(=O)(=O)N2CCCC(CCC(=O)NCc3ccccc3F)C2)s1 (stereo not drawn) | 3.0 | -1.3
CC(=O)Cn1cnc2c(nnn2-c2ccc(Br)cc2)c1=O | -6.1 | -9.3
COc1ccc(C=Nn2c(C3CCCCC3)n[nH]c2=S)cc1OC | -2.7 | -4.2
COCC(=O)Nc1cc(Br)cnc1OCC(F)(F)F | 7.3 | i

# This part in full, repeating the preview:
mol | NPYLR7 agonist | NPYLR7 agonist max-min
COc1ccc(-c2nc3cc(C)ccn3c2NC(=O)c2ccc(F)cc2)cc1 | -2.6 | 7.1
CC(=O)c1ccc(NC(=S)NC(NC(=O)N(C)C)C(Cl)(Cl)Cl)cc1 (stereo not drawn) | -11.0 | -18.1
Cc1ccc(S(=O)(=O)N2CCCC(CCC(=O)NCc3ccccc3F)C2)s1 (stereo not drawn) | 3.0 | -1.3
CC(=O)Cn1cnc2c(nnn2-c2ccc(Br)cc2)c1=O | -6.1 | -9.3
COc1ccc(C=Nn2c(C3CCCCC3)n[nH]c2=S)cc1OC | -2.7 | -4.2
COCC(=O)Nc1cc(Br)cnc1OCC(F)(F)F | 7.3 | i
CN(Cc1ccccc1Cl)c1nc(C2CC2)ns1 | -3.9 | -5.7
O=C(COc1ccc2ccccc2c1)N1CCN=C1SCc1cccnc1 | -2.1 | -5.6
CNC(=O)[C@@H]1C[C@@H](N)CN1Cc1ccc(Oc2ccccc2)nc1 | -2.3 | -8.9
Cc1nc2ccc(Cl)cn2c(=O)c1NC(=O)C1CCCCC1 | -4.8 | -4.7
Cc1nc2c(c(N(C)C)n1)CCN(C(=O)c1ccc(C#CC(C)(C)O)o1)C2 | 7.0 | 3.6
CCn1c(C)ccc(C(=O)NCc2ccc3[nH]c4c(c3c2)CCCC4)c1=O | 13.7 | 10.5
Cc1ccc(C(CN2CCOCC2)NC(=O)NCCc2ccccc2F)cc1 (stereo not drawn) | 0.7 | -0.3
COC(=O)C1=CO[C@@H](O)[C@@H]2C(CO)=CC[C@H]12 | -6.0 | -7.4
CN(C)Cc1nnc(C(=O)N2CCC(CCCc3ccccc3)CC2)o1 | 1.8 | -0.2
O=S(=O)(Cc1ccc(Cl)cc1)c1ccc(N2CCN(c3ccccc3F)CC2)nn1 | -1.3 | -3.9
CCN(CC)c1nc(Cl)nc(N(C)C#N)n1 | -1.5 | -2.8
COc1ccc(CN2CCCC(CO)(CCc3ccccc3)C2)c(OC)c1 (stereo not drawn) | 2.8 | -2.0
COc1cccc(COc2coc(C(=O)NC(C)c3ccccc3)cc2=O)c1 (stereo not drawn) | 0.4 | 2.6
O=C(c1cccs1)N(Cc1cccc(OS(=O)(=O)c2ccc(F)cc2)c1)C1CC1 | -0.4 | 2.2
O=C(CSc1nc(=O)n(Cc2ccncc2)c2c1CCCC2)Nc1ccccc1F | -2.2 | -2.8
S=c1[nH]nc(COc2ccccc2Cl)n1C1CCCC1 | 2.0 | 6.1
CC(=O)Nc1cccc(-c2ccc(C(=O)NC3CC3)s2)c1 | -2.4 | -2.9
CC(c1ccccc1)N1CCN(C(=O)c2ccccc2F)CC1 (stereo not drawn) | -4.8 | 3.0
Cc1cn2c3c(=O)n(Cc4ccc(F)cc4)c(=O)n(C)c3nc2n1CCc1ccccc1 | 4.5 | 1.4
CCc1nnc(NC(=O)CSc2nc3c(c(=O)n2CC)SC(C)C3)s1 (stereo not drawn) | -3.3 | -6.6
O=C(N/N=C/c1ccco1)c1cc(-c2ccccc2)nc2ccccc12 | -5.0 | -11.3
COc1ccccc1-c1cc(C(=O)N2CCN(Cc3ccccc3)CC2)n2nc(C(C)(C)C)cc2n1 | -8.1&2.2 | -0.6&14.1
O=S(=O)(c1ccc(-n2cccn2)cc1)N1CCCC2(CCNC2)C1 (stereo not drawn) | 2.7 | 3.6
COc1ccc(C2CC(C(F)(F)F)n3ncc(C(=O)NCCN4CCOCC4)c3N2)cc1 (stereo not drawn) | -7.6 | -9.3
O=C(c1ccc(F)cc1)N(Cc1ccco1)Cc1nccn1Cc1ccccc1F | 10.2 | 19.0
Cc1cc(-c2ccc3c(c2)OCCO3)cnc1N | 7.3 | 5.6
C=CCN(c1ccccc1)S(=O)(=O)c1ccc2c(c1)CCCN2C(C)=O | 0.5 | 3.6
CSc1c(C#N)c(=O)[nH]c2sc(C#N)c(N)c12 | 4.2 | 5.0
Clc1ccccc1C=NN1CCN(Cc2ccccc2)CC1 | 8.2 | 3.7
CCN1CCc2c(sc(NC(=O)c3ccc(OC)c(OC)c3)c2-c2nc3ccccc3s2)C1 | 40.4 | 35.1
CC(C)(C)n1nc2c(c1NC(=O)c1ccccc1S(=O)(=O)C(F)F)CSC2 | -2.5 | -6.1
COC(=O)CCc1c(C)nn(-c2ccc(C(=O)NCCCO)cc2)c1C | 17.5 | 11.5
CCOC(=O)N1CCC(N2CCCC(C(=O)c3cc(C)c(OC)c(C)c3)C2)CC1 (stereo not drawn) | 3.6 | -0.3
CCCCc1ccc(-c2ccc(-n3cncc3C(=O)NCc3c(F)cccc3F)cc2)cc1 | 11.3 | 9.1
FC(F)Sc1nc2ccccc2n1CN1CCN(c2ccccc2)CC1 | 4.3 | 11.0
O=C1CSC(c2cccnc2)N1c1ccc(Cl)cc1 (stereo not drawn) | 3.8 | -4.6
C=Cc1ccc(CC2(C)C(=O)Nc3c(C(F)(F)F)cccc32)cc1 (stereo not drawn) | 0.6 | 6.8
CC1CCCN(Cc2csc(NC(=O)c3cc(F)ccc3Br)n2)C1 (stereo not drawn) | -5.9 | 3.0
Cc1cc(Cn2cnc(-c3ccccc3)c2-c2cccn2-c2ncccn2)n[nH]1 | 6.8 | 3.0
O=C(Nc1ccccc1I)NC1CCSC1 (stereo not drawn) | 6.1 | 4.8
O=C(O)c1ccc2cc(-c3ccc(O)c(C45CC6CC(CC(C6)C4)C5)c3)ccc2c1 | 0.7 | -6.1
COc1ccc(NC(=O)Nc2ccc(-n3nc(OCC(C)C)nc3-c3cccc(F)c3)cc2)cc1 | -9.2 | -2.2
CCCCC[C@H](CC(=O)NO)C(=O)N[C@H](C(=O)N1CCC[C@H]1CO)C(C)C | -4.8 | -7.2
CC(=O)Cn1c(=O)c2c(nc3n2CCCN3c2ccc(C)cc2C)n(C)c1=O | 1.2 | -2.1
CCN(CC)CCCC(C)NC(=O)c1sc2cc3c(cc2c1Cl)OCO3 (stereo not drawn) | 3.4 | 3.6
O=C(C1CC(=O)N(c2ccccc2)C1)N1CCN(Cc2nnnn2-c2ccc(F)cc2)CC1 (stereo not drawn) | -1.9 | -3.0
COc1ccc(-c2onc(C)c2-c2ccccc2)c(O)c1 | 0.2 | -1.3
CCCc1cc(NCCN(C)C)n2nc3nc(C)cc(C)c3c2n1 | 4.6 | 9.0
COc1ccc(OC)c(S(=O)(=O)n2ccnc2)c1 | 2.2 | -1.6
CC(=O)c1ccc(OCc2cc(C(=O)N3CCCCC3c3cccnc3)no2)cc1 (stereo not drawn) | 12.0 | 4.6

# New compounds follow.
mol | NPYLR7 agonist | NPYLR7 agonist max-min
CC(=O)O[C@@H](C)C(=O)N1CCC(n2c(=O)oc3c(C)cc(C)cc32)CC1 | 3.1 | -0.6
CCS(=O)(=O)c1ccccc1C(=O)N(CCCN1CCOCC1)c1nc2c(F)cccc2s1 | -3.8 | -7.1
CCc1nc(CN(C)CCc2cccs2)cs1 | -2.1 | -3.0
COC[C@H]1C[C@H]2C[C@@H](O)[C@H](N3CCN(c4ccc(C#N)cc4)CC3)[C@]2(O)CO1 | 4.3 | 9.7
CC(=O)Oc1c(-c2ccc(NC(=O)c3ccco3)cc2)c(C(C)C)nn1-c1ccc(C)cc1 | -2.8 | -0.3
c1nc(Sc2n[nH]c(C3CCCO3)n2)c2c3c(sc2n1)CCC3 (stereo not drawn) | 3.0 | 3.0
COCC(=O)N(Cc1cc(NC(=O)c2ccccc2Cl)ccc1N(C)C)C1CC1 | 29.5 | 26.9
COc1cc(OC)cc(C(=O)Nc2ccc(C3SCC(=O)N3c3cccc(F)c3)cc2)c1 (stereo not drawn) | 27.2 | 38.2
O=C(NCc1ccc(Cl)nc1)c1csc([C@@H]2O[C@H](CO)[C@H](O)[C@H](O)[C@H]2O)n1 | 2.4 | -0.1
CC(C)(C)c1nn2cnnc2n(/N=C\c2ccc3c(c2)OCO3)c1=O | 4.9 | 0.7
Cc1ccc2ncn(C3CCN(C(=O)Cc4ccsc4)CC3)c2c1 | -1.0 | 3.3
Cc1cc2c(SCC(=O)N3CCCC(c4ccn[nH]4)C3)ncnc2s1 (stereo not drawn) | -7.2 | -15.2
COc1cc([N+](=O)[O-])cc2c1NC(c1ccccc1Cl)C1CC=CC21 (stereo not drawn) | -1.8 | -3.5
O=C1CCN(C(=O)c2cc3cn(Cc4cccs4)cc3cn2)CCN1 | 22.5 | 11.2
CC(=O)Nc1ccc(-c2ccnc3c2CC(C(=O)NC(C)C)O3)cc1 (stereo not drawn) | -1.5 | 10.6
CCOC(=O)N1CCN(C(c2cccc(Br)c2)C2Sc3nc(C)nn3C2=O)CC1 (stereo not drawn) | -5.2 | -6.9
CN(Cc1ccccc1-n1c(=S)[nH]c2ccccc2c1=O)C1CCCCC1 | -0.4 | -7.1
O=c1c(-c2cccs2)[n+]([O-])c2ccccc2n1OCc1ccco1 | 4.8 | -2.3
Cc1cc2nc(CNC(=O)c3cnn4c3CCCC4)[nH]c2cc1C | 3.3 | 2.7
Cc1ccccc1CS(=O)(=O)NC(C)c1ccccc1 (stereo not drawn) | -0.9 | 2.2
COc1ccccc1N1CCN(C(=O)c2cc3n(n2)CCN(Cc2c(F)cccc2Cl)C3=O)CC1 | 14.5 | 1.9
CC(C)c1cc(C2CCN(C(=O)Cn3nc4ccccc4n3)CC2)[nH]n1 | -0.8 | 16.6
CNC(=O)[C@@H]1[C@@H](OC(=O)Nc2ccccc2)C(=O)N(C)C12CCNCC2 | 10.0 | 16.9
O=C(/C=C/c1ccccn1)N1CCCC(Nc2ccc3c(c2)OCCO3)C1 (stereo not drawn) | 5.5 | 2.4

# Taken from above, three compounds:
mol | NPYLR7 agonist | NPYLR7 agonist max-min
CC(C)c1cc(C2CCN(C(=O)Cn3nc4ccccc4n3)CC2)[nH]n1 | -0.8 | 16.6
CNC(=O)[C@@H]1[C@@H](OC(=O)Nc2ccccc2)C(=O)N(C)C12CCNCC2 | 10.0 | 16.9
O=C(/C=C/c1ccccn1)N1CCCC(Nc2ccc3c(c2)OCCO3)C1 (stereo not drawn) | 5.5 | 2.4

# More results.
mol | NPYLR7 agonist | NPYLR7 agonist max-min
Clc1ccc2c(c1)C1CC(c3ccccc3)=NN1C1(CCCCC1)O2 (stereo not drawn) | -1.3 | -2.3
Brc1ccc2nc(N/N=C\c3nc4ccccc4[nH]3)nc(-c3ccccc3)c2c1 | -3.3 | -9.6
COc1cc(OC)c(CCNC(=O)C2(C#N)CCCCC2)c(OC)c1 | 5.9 | 11.1
Cc1cccc(NC(=O)Cc2cccc(F)c2)n1 | 7.6 | 6.6
Cc1cc(C)c(NC(=O)c2cccnc2)c(Cl)c1 | 2.7 | 1.8
Cn1c(=O)[nH]c(=O)c2c1nc(N1CCN(Cc3ccccc3)CC1)n2Cc1ccccc1F | -1.7 | -3.3
Cc1oc(-c2cccs2)nc1CN1CCC2(CCCN(CC3CC3)C2)C1 (stereo not drawn) | -4.9 | -7.8
CCc1nn(-c2ccccc2)c(NC(=O)c2cnccn2)c1C | 5.9 | 4.6
Cn1ccc(C(=O)Nc2cc(F)ccc2N2CCCCC2)cc1=O | 0.1 | -1.7
CCSc1nc(NCC(C)C)c2cnn(CCNC(=O)c3c(F)cccc3F)c2n1 | -0.6 | -2.8
C=CCOC(CN1CCN(C(=O)c2cccnc2SC)CC1)c1cccc(OC)c1 (stereo not drawn) | -0.3 | 11.3
COc1cccc(OCc2cc(C(=O)N3CCOc4ccccc4C3)n[nH]2)c1 | -0.5 | -9.5
COc1cccc(C2c3c(oc4ccccc4c3=O)C(=O)N2Cc2ccc(C)cc2)c1 (stereo not drawn) | 9.1 | 11.9
CCCCc1ccc(C(=O)N2CCSC2c2ccc(OC)cc2OC)cc1 (stereo not drawn) | -12.1 | -7.4
COC(=O)C1=C(C)NC2=C(C(=O)CC(c3ccc(Cl)cc3)C2)C1c1ccccc1OC(C)C (stereo not drawn) | 1.9 | 9.3
CN1C(=O)c2cccc3c(Cl)ccc(c23)C1=O | 4.4 | 4.2
COCCOc1ccc(S(=O)(=O)Nc2cc(Cl)ccc2OC)cc1C | 27.5 | 23.9
CC(NC(=O)CSc1nnc(-c2ccccc2)n1C)c1ccco1 (stereo not drawn) | -11.6 | -12.7
CCOC(=O)C1CCCN(C(=O)CCC(=O)c2ccc(CCCC3CC3)cc2)C1 (stereo not drawn) | -6.7 | -11.7
COc1ccc(-n2c(-c3ccc(Cl)cc3)cc(C(=O)NCc3ccccc3)c2C)cc1 | -2.9 | 5.1
Cc1ccc(N2C(=O)CC(NCCN3CCOCC3)C2=O)cc1 (stereo not drawn) | -5.7 | -12.8
CCN(Cc1noc(C)n1)C(=O)CCn1c(C)cc2ccccc21 | 37.8 | 32.7
CN(Cc1ccccc1O)C(=O)Nc1cnc(C(C)(C)C)nc1 | 15.0 | 5.2
Cc1nc(Cc2nnc(SCc3nc4ccsc4c(=O)[nH]3)o2)cs1 | 7.9 | 11.6
CN1CCN(n2c3c(c(SCC(=O)NCCc4ccccc4)nc2=O)CCCC3)CC1 | -1.8 | -6.9
CN1C(=C2Sc3ccccc3C2=O)C(C)(C)c2ccccc21 | -7.7 | -12.1
Cc1c(CNC(=O)C2CC3(CCNCC3)CN2)oc2ccccc12 (stereo not drawn) | 8.2 | 3.9
CCOC(=O)C1(C)CCN1C(=O)c1ccc(OC)c(C(F)(F)F)c1 (stereo not drawn) | -3.0 | -8.1
